NPYLR7 agonist – agonists of mosquito NPYLR7 receptor, primary screen, cell-based, Aedes aegypti, calcium fluorescence, mosquito biting behavior; HEK293T NPYLR7/Galpha15, GCaMP6s calcium fluorescence; hit rate 0.15% among 270,000; Aedes aegypti neuropeptide Y-like receptor 7 (NPYLR7); activation, % at 10 µM; AID 1259423, 2018; in the data active = activation above about 40%;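 also: 0% = vehicle and 100% = reference agonist at the receptor; some compounds past the cut are filed as inactive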
NPYLR7 agonist max-min – also measured in NPYLR7 agonist; calls as there; activation, %; measured here: Max-Min RFU normalised activation; some inactives read as strong as hits;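 span of the calcium signal over five minutes; 0% = vehicle and 100% = native peptide agonist; compound fluorescence can raise it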
Starred values were filed as active, the others as inactive; & = joins results of further samples.

SMILES | NPYLR7 agonist | NPYLR7 agonist max-min
O=C(Nc1ccccc1)c1ccc(Br)c(S(=O)(=O)Nc2ccccc2)c1 | 13 | 6
O=c1c(O)c(-c2cc(O)c(O)c(O)c2)oc2cc(O)cc(O)c12 | -3&8 | -9&-54
CCOc1ccc(N2C(=O)CSC2c2cccc(NC(=O)c3cccc(C(F)(F)F)c3)c2)cc1 (centres undefined) | 9 | 11
O=C(NCC1CC1c1ccccc1)N1CCCC1CN1CCOCC1 (centres undefined) | 0 | -11
COc1ccc(-c2csc(=Nc3ccccc3SC)n2CC2CCCO2)cc1 (centres undefined) | -6 | -9
CCc1c(C(=O)OC)sc2nc(CN(Cc3ccccc3)CC(O)COCc3ccco3)[nH]c(=O)c12 (centres undefined) | -7 | -5
CC(C)c1nccn1C(C)c1ccccc1-n1cccn1 (centres undefined) | 0 | -3
COc1ccccc1CCC(=O)OCC(=O)Nc1sc2c(c1C#N)CCCC2 | -7 | -2
Cc1ccc(C(=O)Nc2ccccc2S(=O)(=O)C(C)C)cn1 | 8 | 7
O=C(C1CC1)N(Cc1ccccc1)Cc1c(-c2ccccc2)noc1N1CCOCC1 | -4 | -3
C/C(=N/O)c1cc([N+](=O)[O-])c2ccccc2c1O | -2 | -7
Cn1cc(C(=O)NCCc2ccc(S(N)(=O)=O)cc2)c2[nH]c(=O)n(-c3ccccc3)c(=O)c21 | 5 | 2
COc1ccc(C(O)c2ncc(-c3ccccc3)[nH]2)cc1F (centres undefined) | -3 | -2
O=C1c2cccnc2C(=O)N1c1ccc(Sc2ccc(N3C(=O)c4cccnc4C3=O)cc2)cc1 | 0 | -2
CCOC(=O)C1(Cc2ccc(F)cc2F)CCCN(S(=O)(=O)CC(F)(F)F)C1 (centres undefined) | 3 | -4
CC(=O)c1cccc(NC(=O)c2cc(S(=O)(=O)N3CCCCC3)ccc2Cl)c1 | -5 | -10
O=C(NC(c1ccc(Cl)cc1)c1cnccn1)C1CCN(CCCOc2ccccc2)CC1 (centres undefined) | 4 | 1
CCC1CCC/C1=N/NC(=O)C(O)(c1ccccc1)c1ccccc1 (centres undefined) | 1 | -6
CC1CCN(C(=O)c2ccc3nc(-c4cccnc4)[nH]c3c2)CC(C)(C)C1 (centres undefined) | -3 | -6
C=CCn1c(=O)c2c(nc3n2CCN3c2ccc(F)cc2)n(C)c1=O | 0 | 1
C=CCn1c(SCC(=O)O)nnc1-c1cccc(C)c1 | -11 | -18
Cc1cccc(/C=C2/C(=N)N3N=C(C(F)(F)F)SC3=NC2=O)c1 | 0 | -2
CSCCn1c(=NC(=O)c2cc(C)no2)sc2cc3c(cc21)OCCO3 | 5 | 8
CCCCn1c(=O)c2c(OCC)c(C)cnc2n(C)c1=O | 2 | 1
Cc1ccc(-n2c(C(C)N(C)C(=O)c3ccc(Cl)c(Cl)c3)nc3cc(Cl)ccc3c2=O)cc1 (centres undefined) | 13 | 17
New compounds follow:
SMILES | NPYLR7 agonist | NPYLR7 agonist max-min
COC(=O)c1cc2n(n1)CCCN(C(=O)Cc1cn3ccsc3n1)C2 | -4 | -10
Cc1cc(NC(=O)CSc2nncn2C)ccc1Cl | 0 | 2
CC(Nc1ccc2c(c1)CC(=O)N2)c1ccc(C#N)cc1 (centres undefined) | 7 | 2
CCC(CC)n1ncc(C)c1NC(=O)Cc1ccc(-n2nnnc2C)cc1 | 8 | 5
Cc1cccc(C(=O)N2CCCN(CCCSCC#N)CC2)c1 | 8 | 3
Cc1cccc(-c2ncc(CNCc3cccc4[nH]ccc34)cn2)c1 | 19 | 8
CC1(C)C2CCC1(C)C(N)C2 (centres undefined) | 4 | 2
Cc1nc(CC(C)C)cc(C(=O)N2CCC(n3cc(CCO)nn3)CC2)n1 | 6 | -10
CCN(CC(=O)Nc1cc(C(C)(C)C)nn1-c1ccc(C)cc1)C(=O)c1cc(Cl)cc(Cl)c1 | 14 | 21
CC(=O)c1ccc(C(=O)N(Cc2ccncc2)c2nc3c(C)ccc(Cl)c3s2)cc1 | -3 | -8
COc1ccc(C(=O)NC2CC(=O)N(CC(C)(C)C)C2)c(OC)c1OC (centres undefined) | 18 | 3
CN1CC2(CCN(C(=O)CN3CCc4ccccc4C3)C2)OC1=O (centres undefined) | 7 | 7
N#Cc1ccc(S(=O)(=O)Nc2cc3c(cc2C(=O)O)OCCCO3)cc1 | 5 | 3
O=C(c1ccccc1-c1ccccc1F)N1Cc2cnn(CCO)c2C1 | 0 | -7
Cc1cc(C(=O)O)c(O)c(S(=O)(=O)Nc2c(C)cccc2C)c1 | 6 | 6
CC(C)c1noc(-c2ccc(NC(=O)N3CCCC3)cc2)n1 | -5 | -5
CC(C)(C)c1ccc2c(c1)OCC(C(=O)Nc1nc(-c3ccncc3)cs1)O2 (centres undefined) | -4 | -4
O=C(COC(=O)c1nc(-c2ccccc2)n(-c2ccccc2)n1)NCc1cccs1 | -4 | -8
Cc1cccc(N2CC(C(=O)Nc3n[nH]c(S(C)(=O)=O)n3)CC2=O)c1C (centres undefined) | -3 | -5
CC(NC(=O)Cc1ccsc1)c1ccc(S(C)(=O)=O)cc1 (centres undefined) | 10 | 10
Cc1ccn2c(CNC(C)c3cn(C)nc3C)c(C(=O)N3CCCCCC3)nc2c1 (centres undefined) | 4 | 0
CCn1c(=NC(=O)CN2C(=O)CCC2=O)sc2c(OC)ccc(OC)c21 | 0 | -1
COc1ccc(C(=O)NCC2CCN(Cc3cc(C)c(C)o3)C2)o1 (centres undefined) | 5 | 3
CCOC(=O)CC(=O)CSc1ccc2nnc(-c3ccc(OC)cc3)n2n1 | 7 | 10
COC(=O)NNC(=O)c1ccc(C(=O)NNC(=O)OC)cc1 | 0 | -1

Arranged by count of non-hydrogen atoms (descending): some entries from above
SMILES | NPYLR7 agonist | NPYLR7 agonist max-min
COc1ccc(C(=O)NC2CC(=O)N(CC(C)(C)C)C2)c(OC)c1OC (centres undefined) | 18 | 3
Cc1cccc(-c2ncc(CNCc3cccc4[nH]ccc34)cn2)c1 | 19 | 8
CC(Nc1ccc2c(c1)CC(=O)N2)c1ccc(C#N)cc1 (centres undefined) | 7 | 2

Fetched one by one from the list above (2):
SMILES | NPYLR7 agonist | NPYLR7 agonist max-min
COc1ccc(C(=O)NC2CC(=O)N(CC(C)(C)C)C2)c(OC)c1OC (centres undefined) | 18 | 3
CC(NC(=O)Cc1ccsc1)c1ccc(S(C)(=O)=O)cc1 (centres undefined) | 10 | 10

New compounds follow
SMILES | NPYLR7 agonist | NPYLR7 agonist max-min
COCCN1C(=O)CC(CC(=O)N(C)Cc2cccc3ccccc23)(c2ccccc2Cl)C1=O (centres undefined) | 12 | 7
COc1ccc(-c2cnc(-c3ccc(CNC(=O)c4ccccc4OC)cc3)[nH]2)cc1 | 4 | -4
N#CC1(C#N)OC(C#N)(C#N)C2C(I)=CSC21 (centres undefined) | 21 | 22
S=C(Nc1ccccc1)c1nc2ccccc2s1 | 0 | -1
Cc1cccc(-n2c(CNC(=O)c3ccco3)nnc2SCC(=O)N2CCc3ccccc32)c1 | 10 | 7
O=C(O)c1cccc(N2C(=O)C3C4C=CC(C5CC45)C3C2=O)c1 (centres undefined) | -8 | -12
Cc1ccc(N2C(=O)C3C(C2=O)C2C=CC3C23CC3)cc1C (centres undefined) | 3 | 3
Cc1nc(SC2CCCCNC2=O)n(CC2CCCO2)c1C (centres undefined) | -4 | -7
CC(C)=NSc1ccc(C)cc1[N+](=O)[O-] | -6 | -11
CC1=NC2=C(C(=O)CCC2)C(c2ccc3c(c2)OCO3)C1C(=O)OCc1ccccc1 (centres undefined) | 5 | 6
O=C(NCc1ccn(C2CCCC2)n1)C1CCCN1S(=O)(=O)c1ccccc1 (centres undefined) | 0 | 0
Cc1ccc(C=NNC(=S)NCCCN2CCOCC2)s1 | 7 | 4
N#CC(NC(=O)c1cccc(F)c1F)c1ccc(Cl)cc1 (centres undefined) | 1&3 | -3&3
CCCOc1cccn2c(N(C)C(=O)c3ccncc3)c(CC)nc12 | -4 | -7
Cc1c(C)n2c3c(=O)n(CCC(C)C)c(=O)n(C)c3nc2n1CCc1ccccc1 | 5 | 2
CCOc1ccccc1CN(C)Cc1cc(-c2ccncc2)no1 | 2 | 1
O[C@@H]1CN(c2ncnc3nc[nH]c23)CC[C@H]1c1ccc2ccccc2c1 | 11 | 6
Cc1cc(C(=O)N2CC(=O)Nc3ccccc32)nn1C | 6 | 2
COc1ccc(-c2csc3nc(CN4CCCC4)[nH]c(=O)c23)cc1 | -4 | -1
Cc1cc(C(=O)N2CCOC(Cc3cccc(C(F)(F)F)c3)C2)nn1C (centres undefined) | 12 | 5
Cc1ccccc1C1CC(c2ccccc2Cl)=NN1C(=O)CN1CCC2(CC1)OCCO2 (centres undefined) | 0 | -1
Cc1cccc(C(N)=O)c1O | -26 | -32
Cc1ccc(-n2ncc3c(-n4nc(C)cc4NC(=O)C(C)C)ncnc32)c(C)c1 | 5 | 5
C/C(=N/OCC(=O)Nn1c(C)nc2ccccc2c1=O)c1ccccc1 | -1 | -1
CS(=O)(=O)c1ccc(-c2cc(Br)sc2-c2ccc(F)cc2)cc1 | -2 | -6
(more compounds)
SMILES | NPYLR7 agonist | NPYLR7 agonist max-min
C=CCn1cc(CN2CCC(C(=O)Nc3cccc(-c4cccc(Cl)c4)c3)CC2)c(C)n1 | 11 | 1
CC1CCCC(NCC(=O)Nc2ccccc2)C1 (centres undefined) | -1 | -9
OC(CN1CCOCC1)CN(CCN1CCOCC1)Cc1c(-c2ccccc2)noc1N1CCOCC1 (centres undefined) | 5 | 5
CCOc1cccc(NC(=O)C2CC(=O)N(C)C(=Nc3ccc(OC)cc3)S2)c1 (centres undefined) | 5 | 4
CCCN1CCCN(S(=O)(=O)C2CCOCC2)CC1 | 15 | 11
Fc1ccc(Cc2nc(CSc3nc(-c4ccccc4)cs3)cs2)c(Cl)c1 | 5 | 2
COC1CN(Cc2ccc(C)cc2)C(=O)CN(C(=O)c2cccs2)C1 (centres undefined) | -2 | 9
O=C(CSc1cn(CC(=O)N2CCCC2)c2ccccc12)Nc1cccc(F)c1 | -7 | -10
O=C1NCC(C(=O)N2CCC3(CC2)Nc2ccccc2C(=O)N3OCc2ccccc2)N1 (centres undefined) | 1 | 3
CCc1[nH]n(-c2ccc(Cl)c(Cl)c2)c(=O)c1C1=C(N2CCOCC2)C(=O)N(c2ccc(F)cc2)C1=O | -11 | -17
CCC(OCC(O)CNC(C)(C)C)c1ccccc1 (centres undefined) | -4 | -8
CC(=O)Nn1ccc2nc(N3CCN(C)CC3)ncc2c1=O | 5 | 5
Cc1ccc(Cc2nsc(NCc3ccccc3)n2)cc1 | 0 | 6
Cc1cccc(-n2c(C)nnc2SCc2cc(=O)n3ccsc3n2)c1 | 19 | 5
CCC(C)N(CC(=O)N(CCOC)Cc1cccn1Cc1ccccc1)C(=O)c1ccc(OC)cc1 (centres undefined) | -2 | -8
NC(=O)C1CCCCN1Cc1ccc(Br)cc1 (centres undefined) | -1 | -3
CC(=O)Oc1ccc(Cn2c(C)c(C(=O)NC3CC3)sc2=O)cc1 | 11 | 7
O=C(CSc1nc(=O)n2ccccc2n1)N1CCCCC1 | 0 | 0
COP(=O)(OC)c1c(C)nn(-c2c(Cl)cc(C(F)(F)F)cc2Cl)c1C | -6 | -7
CN1c2ccccc2C(=O)NC1c1cn[nH]c1-c1cccs1 (centres undefined) | 15 | 6
O=S(=O)(NCc1nnnn1C1CCCCC1)c1ccc(F)cc1 | 16 | 9
CCC(C(=O)N1CCN(Cc2cc(=O)c(OCc3ccc(-c4ccccc4C#N)cc3)co2)CC1)c1ccccc1 (centres undefined) | -2 | -4
CSc1nc(N=CC2NC(=O)N(c3ccccc3)C2=O)c(-c2ccccc2)s1 (centres undefined) | 2 | 1
CCc1ccc(Nc2ncnc3c2nnn3C)cc1 | 8 | 2
CCc1nc2ccc(C(=O)Nc3ccc(OC)c(OC)c3)cn2c1N(CCC(C)C)CCN(C)C | -5 | -10

Next part, overlapping the part above by seven compounds.
SMILES | NPYLR7 agonist | NPYLR7 agonist max-min
COP(=O)(OC)c1c(C)nn(-c2c(Cl)cc(C(F)(F)F)cc2Cl)c1C | -6 | -7
CN1c2ccccc2C(=O)NC1c1cn[nH]c1-c1cccs1 (centres undefined) | 15 | 6
O=S(=O)(NCc1nnnn1C1CCCCC1)c1ccc(F)cc1 | 16 | 9
CCC(C(=O)N1CCN(Cc2cc(=O)c(OCc3ccc(-c4ccccc4C#N)cc3)co2)CC1)c1ccccc1 (centres undefined) | -2 | -4
CSc1nc(N=CC2NC(=O)N(c3ccccc3)C2=O)c(-c2ccccc2)s1 (centres undefined) | 2 | 1
CCc1ccc(Nc2ncnc3c2nnn3C)cc1 | 8 | 2
CCc1nc2ccc(C(=O)Nc3ccc(OC)c(OC)c3)cn2c1N(CCC(C)C)CCN(C)C | -5 | -10
O=C(NC1CC1)c1ccnc(-c2ccc3c(c2)OCO3)c1 | -2 | 0
CC(=O)NCc1ccc2c(c1)cc(C)n2C | 6 | 1
O=C(C(Br)=CNCCNC=C(Br)C(=O)C(F)(F)F)C(F)(F)F | 2 | -1
CCOc1cc2c(cc1OCC)CN(C(=O)c1ccc[nH]c1=O)CC2 | 0 | -3
O=C(O)c1ccc(N2C(=O)c3ccc(-c4nc5ccccc5c(=O)o4)cc3C2=O)cc1 | -1 | -7
CN(CCOc1cc(Cl)cc(Cl)c1)C1CCS(=O)(=O)C1 (centres undefined) | 4 | 2
CCOC(=O)c1cnc(-c2cccnc2)nc1NCCc1cccc(OC)c1 | 1 | 3
COCC(=O)Nc1ccc(N2CCN(C(=O)NCc3cccc(OC)c3)CC2)nc1 | 15 | 13
COCCCNC(=O)c1cc(NC(=O)CCc2ccccc2)ccc1N1CCCCC1 | 12 | 21
O=C(CSc1nc(=O)n(Cc2cccnc2)c2c1CCC2)N1CCCCCC1 | 2 | -1
O=C(NCc1ccc(Cl)cc1Cl)Nc1cccc2[nH]c([C@@H]3O[C@H](CO)[C@@H](O)[C@H](O)[C@H]3O)nc12 | 18 | 21
O=C(NCCNc1nc(C2CC2)nc2cc(Cl)ccc12)c1cccc([N+](=O)[O-])c1 | -3 | -1
O=S(=O)(NCC1CCCO1)c1ccc(-n2cccn2)cc1 (centres undefined) | 1 | -1

Some of the compounds tested. The share of hits here may be higher or lower than overall.
